Rango release inh – inhibition of RanGTP-driven Rango-importin beta dissociation | O95149+P62826 | AID 540253 | Biochemical FRET Rango-importin beta, RanGTP-induced dissociation | 340,000 compounds, 0.071% hits | Potency, µM (top dose mostly 46.1 µM), inactives show at the highest dose activity change, negative = inhibition; active means falling FRET ratio curve, often poorly fitted, with flat reads before Ran was added; inconclusive means other falling curves, or compound fluorescence or quenching; inactive means flat or rising ratio curve;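 further: potency means the concentration at half of the fitted maximal effect; % of control where 0% means no effect; nearly all actives have a fitted effect of over 45% in size; -100% = wells without RanGTP and RCC1; the record marks most hits as doubtful in a second field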
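Compounds preincubate 5 min with complex of recombinant Rango and importin beta in PBS with 1 mM DTT. Ran (0.6 uM) loaded with 2 mM GTP plus 0.2 uM RCC1 starts dissociation; FRET is recorded 45 min later.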
miR-21 FLuc – raises the signal of a miR-21 reporter. HeLa miR-21 FLuc reporter, luciferase, 48 h. Potency, µM (series often up to 38.3 µM), without a hit: top-dose reporter change, positive = more light. 340,000 tested, under 10 active. AID 2288; active = well fitted rising curve with a large enough effect; inconclusive = small, poorly fitted or top-dose-only effect; inactive = no such curve, though single readings can be large or run the other way;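 further: % of control where 0% means no effect; miR-21 action dims this reporter so a rising signal means less miR-21 action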
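HeLa cells stably expressing CMV-driven firefly luciferase with a downstream miR-21 binding sequence, endogenously expressing miR-21, were treated with titrations (up to about 40uM final) for 48 hours at 37 degree Celsius. Luciferase luminescence was read after lysis.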
GLA inh pH 4.5 – alpha-galactosidase A (human) inhibition, pH 4.5. P06280. purified enzyme, 4-MU-alpha-Gal fluorescence, pH 4.5. activity change, negative = inhibition, % at 105 µM. 230,000 tested, under 10 active. AID 1467; inconclusive = small, poorly fitted or top-dose-only inhibition, or a rising curve; inactive = flat fitted curve, though single readings scatter; no compound was filed as active;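 further: 0% = full activity with enzyme and -100% = basal without enzyme; dose as in the result columns while the protocol names 77 µM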
Target sequence (P06280 whole entry, looked up): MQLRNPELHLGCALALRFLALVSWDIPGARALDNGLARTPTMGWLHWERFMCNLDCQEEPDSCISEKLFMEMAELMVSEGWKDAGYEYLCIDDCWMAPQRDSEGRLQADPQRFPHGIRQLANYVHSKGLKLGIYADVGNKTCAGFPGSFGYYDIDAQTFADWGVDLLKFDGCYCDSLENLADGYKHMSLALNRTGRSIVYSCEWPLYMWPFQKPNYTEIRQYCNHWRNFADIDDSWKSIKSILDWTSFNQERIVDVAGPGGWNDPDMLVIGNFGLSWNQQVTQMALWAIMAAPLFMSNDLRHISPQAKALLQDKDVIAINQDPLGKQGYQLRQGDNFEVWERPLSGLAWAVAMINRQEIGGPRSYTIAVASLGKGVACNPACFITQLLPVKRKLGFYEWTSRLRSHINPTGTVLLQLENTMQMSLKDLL
Rango complex inh – prevents formation of the Rango-importin beta complex | Q14974 | Rango CFP/YFP FRET sensor + importin beta, 45 min | Potency, µM (doses to about 92.2 µM), for inactives: at the highest dose inhibition of complex formation | 340,000 compounds, 0.031% hits | AID 540263; active = rising FRET ratio curve, often small or poorly fitted; inconclusive = mostly compound fluorescence or quenching in the first reads; inactive = flat curves in all reads;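 further: potency means the concentration at half of the fitted maximal effect; 0% = DMSO wells and 100% = buffer wells lacking importin beta; nearly all actives have a fitted effect of over 15% in size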
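FRET biosensor Rango (snurportin 1 IBB between N-terminal EYFP and C-terminal Cerulean), 50 nM in PBS/1 mM DTT/0.02% Tween-20/0.1% BSA, preincubated 5 min RT with compound; 0.125 microM importin beta added, 45 min RT, CFP/YFP FRET ratio read.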
* marks the source's active call; other numbers are inactive results; ? = inconclusive; . = no result given; & = joins results of further samples.

SMILES	Rango release inh	miR-21 FLuc	GLA inh pH 4.5	Rango complex inh
O=c1[nH]cnc(O)c1C(c1ccc(Br)cc1)c1c(O)nc[nH]c1=O	-16%	2%	-6	2.5%
Cc1cc(-c2nn(-c3ccccc3F)cc2CN2CCN(c3ccccn3)CC2)c(C)s1	-4%	6%	-4	-3.0%
CCOc1ccccc1NC(=S)NCCc1ccc(F)cc1	-8%	6%	-5	-2.1%
COc1ccc2nc(SCC(=O)NCc3ccc4c(c3)OCO4)[nH]c2c1	14%	-7%	7	-0.4%
COc1ccccc1N1CCN(CC(=O)c2ccc3ccn(C(C)=O)c3c2)CC1	-12%	-15%	-1	-3.4%
O=c1[nH]c2ccccc2c(O)c1-c1cc2ccccc2oc1=O	.	1%	6	.
COc1ccc(NC(=O)C2C3C=CC(O3)C2C(=O)NCc2cccnc2)cc1 (configuration not stated)	15%	-12%	2	0.2%
O=C(COC(=O)c1ccc(Sc2ccccc2)c([N+](=O)[O-])c1)NC1CCCc2ccccc21 (configuration not stated)	5%	2%	6	1.9%
CCc1cc2c(cc3c(=O)n(CC(=O)N4CCN(c5ccccn5)CC4)nc(CC)n32)s1	12%	-1%	-9	0.2%
Nc1ccc(S(=O)(=O)Nc2nccc(/C=C/c3cccc(Br)c3)n2)cc1	5%	-18%	.	-1.3%
CCNc1nc(N)c(C(=C(C#N)C#N)c2ccccc2)s1	-12%	7%	?	-3.1%
OC1(c2cccc(C(F)(F)F)c2)CCN(Cc2nc(-c3cnccn3)no2)CC1	-4%	1%	-1	1.1%
COc1cccc(N(CC(=O)NC2CCCCC2)C(=O)CCC(=O)Nc2nc(C)cs2)c1	2%	-2%	.	-2.4%
O=C(Nc1ccc(Cl)c(S(=O)(=O)N2CCOCC2)c1)c1ccc(Cl)nc1	-11%	.	.	3.4%
O=C(Nc1ccc(-c2nc3ccccc3s2)c(O)c1)C1=COCCO1	-17%	-67%	5	-1.3%
CCc1ccc(NC(=O)c2cc3c(C)nc4ccccc4c3o2)cc1	-22%	5%	-5	6.4%
O=C(O)C1CCN1C1CCCCC1 (configuration not stated)	2%	3%	4	0.1%
CCCCCNC(=O)[C@@H]1CSC2c3ccccc3C(=O)N21 (some centres not stated)	-15%	1%	.	0.2%
O=C(N/N=C/c1ccccc1[N+](=O)[O-])c1ccc(CN2CCOCC2)cc1	-7%	-26%	-5	-1.4%
COC(=O)c1nn(-c2ccc3c(c2)CCN3C(C)=O)cc1O	-4%	?	12	1.5%
CCN(CCO)c1ncnc2c1sc1nc(CC(C)C)c3c(c12)CC(C)(C)OC3	-4%	-14%	-6	-3.3%
COc1ccc(OC)c(C(=O)COC(=O)c2ccc(C)o2)c1	0%	-12%	-1	2.1%
CCOC(=O)c1c(-c2ccc(C)cc2)csc1NC(=O)c1cccc(N2C(=O)CCC2=O)c1	9%	-7%	-12	-2.0%
CCCc1ccc(O)c(N=Cc2cc(Br)cc(OCC)c2O)c1	?	11%	1	?
CN1C(=O)[C@H]2[C@@H](/C=C/c3ccccc3)N3C(=O)CN(CCO)C(=O)[C@@]3(Cc3ccccc3)[C@H]2C1=O	5%	4%	.	-0.1%
COc1cc2c(cc1OC)C(C)N(C(=O)c1ccc(C)o1)CC2 (configuration not stated)	5%	21%	.	4.3%
COc1ccc(OC)c(CCNC(=O)c2ccc(NC3=NC4CS(=O)(=O)CC4S3)cc2)c1 (configuration not stated)	13%	3%	.	1.0%
Cc1ccc(C)c(NC(=O)CSc2ccc(-c3ccco3)nn2)c1	0%	0%	1	0.6%
CC(C)CCN(C(=O)CNC(=O)c1cccs1)C(C(=O)NC1CCCC1)c1ccncc1 (configuration not stated)	11%	-3%	-6	0.0%
COc1cccc(NC(=O)CSCc2cc(=O)n3ccsc3n2)c1	-7%	1%	.	0.2%
CCOC(=O)c1ccc(NC(=O)CNNC(=O)COc2ccccc2C)cc1	1%	.	.	1.0%
O=C(COc1ccc(Cl)cc1Cl)N/N=C/c1ccccn1	11%	2%	.	-0.5%
Cc1noc(C)c1C(=O)N1CCC(Cc2ccccc2)CC1	-4%	-1%	4	-5.8%
Cc1nc(N2CCN(c3ccccc3)CC2)nc2c1C(=O)CC(c1ccccc1)C2 (configuration not stated)	24%	5%	-7	-1.0%
O=C(Nc1ccc(S(=O)(=O)N2CCCCC2)cc1)C1CC(=O)N(c2ccc(F)cc2)C1 (configuration not stated)	8%	0%	.	2.8%
COC(=O)c1ccc(S(=O)(=O)NCCc2ccccc2OC)n1C	-12%	-3%	7	?
CC(=O)Nc1ccccc1C(=O)C(=O)O	-21%	-4%	3&-3	-3.4%
CC(C)CN1CC(COCc2ccccc2)Oc2ccccc2S1(=O)=O (configuration not stated)	-3%	.	.	-0.1%
CCOC(=O)N1CCN(C(=O)c2c[nH]c3ccc(S(=O)(=O)N(C)c4ccc(F)cc4)cc3c2=O)CC1	-7%	0%	.	2.6%
CCCS(=O)(=O)Nc1ccc(-c2cn3c(n2)SCC3)cc1	-5%	-10%	.	-0.8%

Not a retest: 3 of the compounds above.
SMILES	Rango release inh	miR-21 FLuc	GLA inh pH 4.5	Rango complex inh
CCOC(=O)c1ccc(NC(=O)CNNC(=O)COc2ccccc2C)cc1	1%	.	.	1.0%
O=C(COc1ccc(Cl)cc1Cl)N/N=C/c1ccccn1	11%	2%	.	-0.5%
Cc1noc(C)c1C(=O)N1CCC(Cc2ccccc2)CC1	-4%	-1%	4	-5.8%

Following part.
SMILES	Rango release inh	miR-21 FLuc	GLA inh pH 4.5	Rango complex inh
C[n+]1cn(/N=C/c2ccccc2)c2ccccc21	4%	-1%	16	-2.8%
Cc1cc(SCC(=O)N/N=C/c2ccc(O)cc2O)c(C)cc1Br	-23%	26%	-5	-0.9%
OCC1(Cc2ccccc2)CCCN(C2CCCC2)C1 (configuration not stated)	0%	0%	-13	0.1%
Cc1cccc(OCc2nnc(SCC(=O)c3c(N)n(C4CC4)c(=O)[nH]c3=O)o2)c1	1%	.	.	-1.6%
CC(C)CN(C(=O)CN1CCN(c2ccc(F)cc2)CC1)c1c(N)n(CC(C)C)c(=O)[nH]c1=O	-2%	-1%	-9	0.7%
O=c1cc(O)c2c(=O)n(-c3ccccc3)c3ccccc3c2o1	?	-2%	-3	?
CCCCCOc1ccc(NC(=O)CCCC(=O)O)cc1	-1%	-5%	3	-2.4%
CCCOC1CCCN(C(=O)c2cc(COc3c(F)cccc3F)on2)C1 (configuration not stated)	9%	-56%	.	-1.4%
CCS(=O)(=O)N1Cc2ccccc2CC1C(=O)Nc1cccc(OC)c1 (configuration not stated)	-3%	-25%	.	-0.3%
C=CCc1ccc(OCCCOc2ccc(C(=O)O)cc2)c(OC)c1	-1%	-34%	-3	2.5%
Cc1nnc(SC(C)C(=O)NC2CCCCC2)s1 (configuration not stated)	-10%	.	.	-5.4%
C/C(=N\Nc1ccccc1Cl)c1ccc(-n2ccnc2)cc1	-20%	-47%	-5	-2.5%
Cc1nc(N)sc1N=Nc1ccc(Br)cc1	4%	-68%	-4	3.7%
Cc1nc2ccccc2n1C1CC(=O)N(Cc2ccccc2)C1=O (configuration not stated)	-1%	7%	-3	-1.6%
CC(=O)c1nc(N2C(=O)C3CC=C(C)CC3C2=O)sc1C (configuration not stated)	1%	-14%	-2	0.3%
S=C(Nc1ccc(Cl)cc1Cl)N1CCN(c2ccccn2)CC1	-8%	1%	.	-3.5%
Cn1nnnc1NCc1ccc(Cl)cc1	-21%	2%	2	2.9%
Cc1nonc1NC(=O)CSc1nnc(-c2ccoc2C)n1C	7%	5%	4	-0.4%
O=C(NCc1ccncc1)C(=O)NCC1OCCCN1S(=O)(=O)c1ccccc1 (configuration not stated)	-2%	-1%	-3	0.2%
O=C(Nc1ccc2c(c1)OCO2)c1ccc(N2C(=O)c3ccccc3C2=O)cc1	-3%	-10%	-25	-1.8%
O=C(CN(Cc1ccc(F)cc1)C(=O)CNS(=O)(=O)c1ccc(Cl)cc1)NCC1CCCO1 (configuration not stated)	14%	-1%	.	-0.2%
CCOC(=O)N1CCN(S(=O)(=O)c2c(C(=O)N3CCCCC3)c(C)n(C)c2C)CC1	31%	0%	.	0.7%
C=CCSc1n[nH]c2nc3c(c(=O)n12)C1(CCCC1)Cc1ccccc1-3	-4%	2%	8	?
CCOc1ccc(N(CC(=O)Nc2ccccc2C)S(=O)(=O)c2c(C)noc2C)cc1	6%	21%	-2	-3.9%
O=C(COC(=O)c1ccc(S(=O)(=O)N2CCOCC2)cc1)Nc1nc(-c2ccccc2)cs1	3%	-10%	-1	-2.3%
CCOC(=O)c1cnc2ccc(C)cc2c1Sc1ccccc1C(=O)OC	-3%	-2%	-3	0.5%
CC(=O)Nc1ccc(S(=O)(=O)NCCSCc2ccco2)cc1	-4%	-2%	3	0.9%
COc1ccc(CC(=O)NNC(=O)CCc2ccccc2)cc1OC	-8%	-1%	8	-3.1%
CCCNC(=O)C1(CC2CC(c3ccccc3)=NO2)CCN(C(=O)C2CCCC2)CC1 (configuration not stated)	1%	.	.	5.5%
Cc1ccc(N(CC(=O)N/N=C/c2cccc(Br)c2)S(C)(=O)=O)cc1	-7%	-4%	-3	-3.1%
O=C(CCN1C(=O)c2ccccc2C1=O)Nc1ccncc1	1%	-2%	0	-1.6%
Cn1c(=O)c2c(nc(CN3CCN(CCO)CC3)n2CCc2ccccc2)n(C)c1=O	-6%	0%	7	?

Sorted by SMILES length (rising): 15 of the compounds above.
SMILES	Rango release inh	miR-21 FLuc	GLA inh pH 4.5	Rango complex inh
Cn1nnnc1NCc1ccc(Cl)cc1	-21%	2%	2	2.9%
Cc1nc(N)sc1N=Nc1ccc(Br)cc1	4%	-68%	-4	3.7%
Cc1nnc(SC(C)C(=O)NC2CCCCC2)s1 (configuration not stated)	-10%	.	.	-5.4%
O=C(CCN1C(=O)c2ccccc2C1=O)Nc1ccncc1	1%	-2%	0	-1.6%
COc1ccc(CC(=O)NNC(=O)CCc2ccccc2)cc1OC	-8%	-1%	8	-3.1%
Cc1nc2ccccc2n1C1CC(=O)N(Cc2ccccc2)C1=O (configuration not stated)	-1%	7%	-3	-1.6%
CC(=O)c1nc(N2C(=O)C3CC=C(C)CC3C2=O)sc1C (configuration not stated)	1%	-14%	-2	0.3%
CCOC(=O)c1cnc2ccc(C)cc2c1Sc1ccccc1C(=O)OC	-3%	-2%	-3	0.5%
O=C(NCc1ccncc1)C(=O)NCC1OCCCN1S(=O)(=O)c1ccccc1 (configuration not stated)	-2%	-1%	-3	0.2%
C=CCSc1n[nH]c2nc3c(c(=O)n12)C1(CCCC1)Cc1ccccc1-3	-4%	2%	8	?
O=C(Nc1ccc2c(c1)OCO2)c1ccc(N2C(=O)c3ccccc3C2=O)cc1	-3%	-10%	-25	-1.8%
Cn1c(=O)c2c(nc(CN3CCN(CCO)CC3)n2CCc2ccccc2)n(C)c1=O	-6%	0%	7	?
CCCNC(=O)C1(CC2CC(c3ccccc3)=NO2)CCN(C(=O)C2CCCC2)CC1 (configuration not stated)	1%	.	.	5.5%
CCOC(=O)N1CCN(S(=O)(=O)c2c(C(=O)N3CCCCC3)c(C)n(C)c2C)CC1	31%	0%	.	0.7%
O=C(CN(Cc1ccc(F)cc1)C(=O)CNS(=O)(=O)c1ccc(Cl)cc1)NCC1CCCO1 (configuration not stated)	14%	-1%	.	-0.2%

Screens from PubChem BioAssay.

An excerpt (hit frequency here may not be typical).
